Screening data (PubChem BioAssay)
Measles inh = inhibitors of measles virus growth in infected cells. infected Vero cells, GFP fluorescence, 64 h; stronger effect = lower value. z-score (no concentration beside the values). hit rate 0.1% among 33,000;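 active = z-score under -3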;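 note: score is relative to mean and SD of the compound wells of a plate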
* hit, by the source's call. Only part of the results is shown. The share of hits here may be higher or lower than overall.

SMILES	Measles inh
CCOc1ccc(CC(=O)NCCSc2c(C)[nH]c3ccccc23)cc1	0.26
N=c1n(CCN2CCCCC2)c2ccccc2n1CC(O)COc1ccccc1 (configuration not stated)	-1
Brc1cccc(C=Nc2ccnc3ccccc23)c1	-0.34
Cc1nc(NC(=O)C2CC2c2ccc(C(C)(C)C)cc2)sc1C(=O)N(C)C (configuration not stated)	0.06
O=C(Cn1c(=O)n(Cc2ccc(C(=O)NC3CCCC3)cc2)c(=O)c2ccccc21)c1ccc(F)cc1	-0.27
O=C1OC2(c3ccccc3)C3CCCC2C13Cl	1.1
Cc1ccc(N2CC(C(=O)Nc3ccccc3Cl)CC2=O)cc1 (configuration not stated)	-0.17
CC1CCN(C(=O)c2c(NC(=O)c3ccccc3F)sc3c2CCC(C(C)(C)C)C3)CC1 (configuration not stated)	1.4
COc1ccc(C2/C(=C(\O)c3ccccc3)C(=O)C(=O)N2CCCN2CCOCC2)cc1 (configuration not stated)	-0.07
CC1(C)CC(=O)C2=C(C1)c1c(ccc3ncccc13)NC2c1ccccn1 (configuration not stated)	-1

Retrieved one by one from above:
SMILES	Measles inh
COc1ccc(C2/C(=C(\O)c3ccccc3)C(=O)C(=O)N2CCCN2CCOCC2)cc1 (configuration not stated)	-0.07
CC1(C)CC(=O)C2=C(C1)c1c(ccc3ncccc13)NC2c1ccccn1 (configuration not stated)	-1

Returning to the listing, repeating the 6 entries before the break.
SMILES	Measles inh
O=C(Cn1c(=O)n(Cc2ccc(C(=O)NC3CCCC3)cc2)c(=O)c2ccccc21)c1ccc(F)cc1	-0.27
O=C1OC2(c3ccccc3)C3CCCC2C13Cl	1.1
Cc1ccc(N2CC(C(=O)Nc3ccccc3Cl)CC2=O)cc1 (configuration not stated)	-0.17
CC1CCN(C(=O)c2c(NC(=O)c3ccccc3F)sc3c2CCC(C(C)(C)C)C3)CC1 (configuration not stated)	1.4
COc1ccc(C2/C(=C(\O)c3ccccc3)C(=O)C(=O)N2CCCN2CCOCC2)cc1 (configuration not stated)	-0.07
CC1(C)CC(=O)C2=C(C1)c1c(ccc3ncccc13)NC2c1ccccn1 (configuration not stated)	-1
COc1cc(N)cc2sc(NC(=O)c3ccc(N)cc3)nc12	-1.2
COc1ccc(Nc2ncc(C(=O)Nc3cc(C)c(Cl)cc3OC)c3ccccc23)cc1	-1
CCOc1cc(C(Nc2cc(C)ccn2)c2ccc3cccnc3c2O)ccc1O (configuration not stated)	-0.7
CCCOc1ccc(N2C(=O)CC(NCCOC34CC5CC(CC(C5)C3)C4)C2=O)cc1 (configuration not stated)	-1.2
CCN(CC)S(=O)(=O)N1CCC(C(=O)NC2CC2)CC1	-0.69
Cn1c2c(c3ccccc31)C(=O)CCC2	-0.02
CSc1nnc2c(n1)OC(c1ccc(-c3ccccc3Cl)o1)N(C(C)=O)c1ccccc1-2 (configuration not stated)	0.25
O=C1CSC(c2ccc(Br)cc2)N1c1ccccn1 (configuration not stated)	2.1
CCSc1oc(-c2ccco2)nc1S(=O)(=O)c1ccccc1	-0.17
O=C(O)c1ccc([N+](=O)[O-])c2c1NC(C1CC=CCC1)C1CC=CC21 (configuration not stated)	-1
COc1ccc(CNC(=O)c2cc3cc4ccc(OC)cc4nc3s2)cc1	0.48
CN(C)c1ccc(C2C3=C(CC(C)(C)CC3=O)OC3=C2C(=O)CC(C)(C)C3)cc1Br	0.56
NC(=O)C1CCN(C(=O)c2ccc3c(=O)n(-c4ccc(F)cc4)c(SCC(=O)N4CCCC4)nc3c2)CC1	0.82
Cn1c(=O)[nH]c(=O)c2c1nc(N1CCCCCC1)n2CCCc1ccccc1	-0.51
CCc1cc(-c2n[nH]c(=S)n2CC)cs1	1.8
Cc1ccsc1C=Nc1ccc(Nc2ccccc2)cc1	-0.82
Cc1ccn2c(Nc3ccccc3)c(-c3ccsc3)nc2c1	1.9
N#Cc1c(NC(=O)c2noc3c2CCCC3)sc2c1CCC2	-0.94
Cc1ccc(-n2nc3c(c2NC(=O)C2CC2)CSC3)cc1	1.4
O=C(NCCSc1c[nH]c2ccccc12)c1ccc(F)cc1	0.03
Fc1nc(F)c(F)c(C#Cc2ccccc2)c1F	0.45
COc1cc(C(=O)Nc2c(-c3ccccc3)c3cc(Br)ccc3[nH]c2=O)cc(OC)c1OC	-2.1
COc1ccc(OC)c(CN2CCN(Cc3ccncc3)CC2)c1	-1.6
CC1(C)C(C=C(Cl)Cl)C1C(=O)Nc1cccc([N+](=O)[O-])c1 (configuration not stated)	-2.5
O=C(CSc1ncnc2sc3c(c12)CCCC3)Nc1cccc(C(F)(F)F)c1	2.5
COc1cc(OC)c(C2SCCN2S(=O)(=O)c2ccc(Br)cc2)cc1OC (configuration not stated)	-0.45
Cc1sc2ncnc(SCC(=O)Nc3ccc(Br)cc3)c2c1C	-0.3
CN(C)CC(=O)c1c[nH]c2ccccc12	-0.25
COc1ccc(CC(=O)N2CC(=O)Nc3ccc(Br)cc3C2c2ccc(F)cc2)cc1 (configuration not stated)	-1.4
CCCOC(=O)C1=C(C)NC2=C(C(=O)CC(c3ccccc3)C2)C1c1ccc(OC(C)=O)c(OC)c1 (configuration not stated)	-0.17
Cc1ccc(C)c(Nc2cc(N(C)C)c3nonc3c2[N+](=O)[O-])c1	-0.12
CC[n+]1ccc(C)c2cc(S(=O)C(F)(F)F)ccc21 (configuration not stated)	1.6
CC(C)NC(=O)CCCn1c(=S)[nH]c2ccc(Br)cc2c1=O	1.1
CC1CCN(C(=O)CSc2c3c(nc4ccc(Cl)cc24)CCCC3)CC1	-0.89
Cc1ccc(C(=O)Nc2c(C)ccc3nsnc23)cc1	-0.71
COC(=O)c1c(NC(=O)c2cccc(Br)c2)sc(C)c1C	0.88
Cc1c(C(=O)NCCCN2CCOCC2)oc2ccc(S(=O)(=O)N3CCCC3)cc12	-0.47
CC(=O)N1CCc2cc(S(=O)(=O)NC(C(=O)N(C)Cc3ccccc3)C(C)C)ccc21 (configuration not stated)	0.88
CCc1ccccc1-n1cnc2cc(C(=O)NCc3ccc(C)cc3)ccc21	0.3
COc1ccccc1CNC(=O)c1cnn2c(C)c(Cc3cccc(Br)c3)c(C)nc12	-0.23
COCc1cc(C)nc(Oc2ccccc2)c1C#N	0.62
CN(CCNC(=O)c1cc(Sc2ccc(F)cc2)nc2ccccc12)Cc1ccccc1	-0.48
Cc1ccc(C2=Nc3ccccc3N=C(c3ccc(Br)cc3)C2)c(O)c1	0.65
CCC12C(=O)C(CC)(C(c3ccccc3)=C1c1ccccc1)C1C(=O)N(c3ccccc3[N+](=O)[O-])C(=O)C12 (configuration not stated)	-1.3
O=c1[nH]c2ccc(Cl)cc2c(-c2ccccc2)c1SCCO	-0.29
O=c1[nH]c2cc(Cl)ccc2c(-c2ccccc2)c1Sc1ncn[nH]1	0.16
O=C1CCCc2c1cc(C(=O)Nc1ccc(Br)cc1)c(=O)n2-c1ccccc1	0.73
CCCCOC(=O)C1=C(C)NC(=O)NC1c1ccc(OC)c(OC)c1 (configuration not stated)	-0.52
Fc1cccc(CN2CCN(C3CCCCC3)CC2)c1	1.5
Cc1ccc(S(=O)(=O)N2CCCC2C(=O)O)cc1 (configuration not stated)	1.3
The results go on:
SMILES	Measles inh
CCCCn1c(C)csc1=Nc1ccccc1	0.19
Cc1ccccc1C(=O)Nc1ccccc1F	0.5
COc1ccc(S(=O)(=O)CCC(=O)Nc2ccc(C)cc2)cc1	-0.65
O=C(NCc1ccccc1Cl)c1ccc2c(=O)n(CCc3ccccc3)c(=S)[nH]c2c1	-0.02
O=C(O)c1cc(-c2ccc(N3C(=O)c4ccccc4C3=O)c(C(=O)O)c2)ccc1N1C(=O)c2ccccc2C1=O	0.26
c1csc(-c2nnc(Oc3ccc4c(c3)OCO4)c3ccccc23)c1	0.09
COc1ccc(OC(C)C(=O)Nc2ccc(OC)cc2OC)cc1 (configuration not stated)	-0.58
COc1ccc(-c2nnc(SC)n2-c2ccccc2)cc1OC	-0.24
O=c1[nH]c2ccc(Cl)cc2c(-c2ccccc2)c1C1=NNC(C=Cc2ccccc2)C1 (configuration not stated)	-1.4
Cc1ccc(Cl)cc1Nc1cc(N2CCOCC2)c2nonc2c1[N+](=O)[O-]	0.22
Cc1ccc(CNC(=O)c2cc(S(=O)(=O)N3CCc4ccccc43)ccc2F)cc1	2.2
Cc1n[nH]c(C)c1S(=O)(=O)N1CCN(C2CCCCC2)CC1	-0.15
Cc1ccc(Oc2nc3c(c(=O)n(C)c(=O)n3C)n2Cc2ccc(Br)cc2)cc1C	-2.2
COc1ccc(-n2c(=O)c3ccccc3n(CC(=O)NCc3ccco3)c2=O)cc1OC	-0.43
O=C(Cc1ccccc1)N1N=C(c2ccc(Br)cc2)CC1c1ccc(Br)cc1 (configuration not stated)	-0.65
CCOC(=O)c1sc2ncnc(Nc3cccc(OC)c3)c2c1C	-0.92
Cc1ccn2cc(-c3ccccc3)nc2c1	0.25
COc1ccc(NC(=O)c2cc(S(=O)(=O)N3CCN(c4ccccn4)CC3)ccc2F)cc1	-0.36
O=c1[nH]c2cc3ccccc3c(=O)n2c2ccccc12	-0.1
COCCNc1ncnc2c1cnn2-c1ccccc1	-0.01
O=c1oc2ccc3ccccc3c2cc1-c1nc2c(s1)CCc1ccccc1-2	-0.24
c1ccc(-c2ccc(CSc3nc4ccccc4o3)cc2)cc1	-0.21
O=C(O)c1ccc(CS(=O)(=O)Cc2ccccc2Cl)o1	-0.1
O=[N+]([O-])c1ccc2c(c1)oc1ccccc12	-0.49
COc1ccc(C(=O)Nc2ccc3oc(-c4ccccc4)nc3c2)cc1OC	-0.14
CCOC(=O)c1cnc2c(C)c(Cl)ccc2c1Nc1ccc2c(c1)OCCO2	1.7
N#CCSc1nc2c(sc3ccccc32)c(=O)n1C1CCCCC1	0.18
COc1ccc(CCNC(=O)C(C)N2C(=O)c3ccccc3C2=O)cc1OC (configuration not stated)	0.2
Brc1cccc(C2CC(c3ccccc3)Nc3ncnn32)c1 (configuration not stated)	0.3
O=C1CN(C(=O)c2cc3ccccc3oc2=O)C(c2ccccc2)c2cc(Br)ccc2N1 (configuration not stated)	1.4
COc1cc(C=Cc2ccc3cccc(O)c3n2)c(Br)cc1O	0.89
COc1ccc(Nc2cc(C(=O)N3CCCCCC3)c3ccccc3n2)c(OC)c1	0.43
Cc1ccc(C2Nc3cccc4cccc(c34)N2)cc1	1.4
C=CCN(C(=O)c1cc2cc3cc(OC)ccc3nc2s1)c1ccccc1	-1.4
C#CCOc1ccc2c(C)cc(=O)oc2c1	-0.32
O=C(Cn1c(=O)n(-c2ccc(Cl)cc2)c(=O)c2c3c(sc21)CCC3)NCC1CCCO1 (configuration not stated)	2
CCN(CC)C(=O)C1CCCN(c2ccccc2[N+](=O)[O-])C1 (configuration not stated)	0.04
O=c1[nH]c2ccc(S(=O)(=O)Nc3ccccc3Br)cc2[nH]c1=O	0.96
CCC(=O)N1CCc2cc(Br)cc(S(=O)(=O)N3CCCC(C(=O)O)C3)c21 (configuration not stated)	0.75
N#Cc1cc(Br)ccc1N=C1CCCN1c1cccc(Cl)c1	-0.97
CCN(CC)C(=O)N1CCc2ccccc2C1CN1C(=O)c2ccccc2C1=O (configuration not stated)	-0.21
COCCNC(=O)c1cc2nc(-c3ccccc3)cc(-c3ccccc3)n2n1	-1.7
CN(CC(=O)N1c2ccccc2Sc2ccc(C(F)(F)F)cc21)Cc1ccccc1	0.21
CCOc1ccc(NS(=O)(=O)c2cc(Br)cc3c2N(C(C)=O)C(C)C3)cc1 (configuration not stated)	-0.26
O=C(c1cc(C(=O)N2CCN(c3ccc(F)cc3)CC2)cc([N+](=O)[O-])c1)N1CCN(c2ccc(F)cc2)CC1	-0.1
O=C(CNS(=O)(=O)c1ccc(Br)s1)N1CCN(c2cccc(Cl)c2)CC1	-1.1
Cc1cc(=O)n2[nH]c(-c3ccco3)nc2n1	-0.32
CS(=O)(=O)N(CC(=O)NCCSc1ccccc1)c1cc(C(F)(F)F)ccc1Cl	-0.33
O=C(Nc1ccccc1)C1CCN(S(=O)(=O)c2ccc(Cl)cc2)CC1	0.08
CCCCN(CC)C(=O)Cn1cnc2ccc(S(=O)(=O)N3CCC(C)CC3)cc2c1=O	0.05
(more compounds)
SMILES	Measles inh
Nc1nc(N2CCOCC2)ncc1F	-0.32
CCC(=O)n1ccc(C(=O)N2CCOCC2)n1	-0.76
O=C(CN(Cc1ccccc1)S(=O)(=O)c1ccc(F)cc1)NCc1ccccc1	0.73
CCOC(=O)c1ccc(NC(=O)c2ccc3nc(N)sc3c2)cc1	1.1
CN1CCN(C(=O)c2c[nH]c3ccc(S(=O)(=O)N4CCCCC4)cc3c2=O)CC1	1.3
O=C(NC1CCCCCCC1)c1cccn2c(=O)c3sccc3nc12	-1.6
CCOc1ccc(NC(=O)c2sc3ncnc(N(CC)CC)c3c2C)cc1	1.1
Cc1ccc(C2CC(C(F)(F)F)n3ncc(C(=O)Nc4sc5c(c4C(=O)OC(C)C)CCCC5)c3N2)cc1 (configuration not stated)	-0.03
CCOC(=O)C1=C(C)Nc2nc(SCc3ccccc3C)nn2C1c1ccccc1F (configuration not stated)	1.2
Cc1cccc(OCCCC(=O)NCc2ccco2)c1	-0.1
COc1nc(Nc2ccc(O)cc2)nc(OC(C(F)(F)F)C(F)(F)F)n1	-1.4
CCCc1c(O)nc(SCC(=O)O)[nH]c1=O	1.5
CC(C)(C)c1cc(C(F)(F)F)nc(SCCCNC(=O)c2ccco2)n1	-1.7
COc1ccc(-c2nc3ccccc3n2Cc2ccc(C)cc2)cc1OC	0.27
O=C1CC(NCC(O)c2ccccc2)C(=O)N1c1ccc(Cl)cc1 (configuration not stated)	0.01
O=c1c2sccc2n(Cc2cccc(Cl)c2)c(=O)n1-c1ccc(F)cc1	-0.25
CCOc1ccc(NC(=O)c2ccc(OC)cc2)c([N+](=O)[O-])c1	-0.24
COc1ccccc1NC(=O)CCN1C(=O)c2cccc([N+](=O)[O-])c2C1=O	-0.14

Molecules above with a CF3 group:
SMILES	Measles inh
O=C(CSc1ncnc2sc3c(c12)CCCC3)Nc1cccc(C(F)(F)F)c1	2.5
CC[n+]1ccc(C)c2cc(S(=O)C(F)(F)F)ccc21 (configuration not stated)	1.6
CN(CC(=O)N1c2ccccc2Sc2ccc(C(F)(F)F)cc21)Cc1ccccc1	0.21
CS(=O)(=O)N(CC(=O)NCCSc1ccccc1)c1cc(C(F)(F)F)ccc1Cl	-0.33
Cc1ccc(C2CC(C(F)(F)F)n3ncc(C(=O)Nc4sc5c(c4C(=O)OC(C)C)CCCC5)c3N2)cc1 (configuration not stated)	-0.03
COc1nc(Nc2ccc(O)cc2)nc(OC(C(F)(F)F)C(F)(F)F)n1	-1.4
CC(C)(C)c1cc(C(F)(F)F)nc(SCCCNC(=O)c2ccco2)n1	-1.7
